# Screens deposited in PubChem by National Center for Advancing Translational Sciences (NCATS).
# SARS PLpro yeast: inhibitors of SARS-CoV papain-like protease in yeast; AID 485353; 330,000 compounds, 0.19% hits; Potency, µM (series often up to 32.9 µM), for the others: top-dose activity, positive = growth rescue; S. cerevisiae expressing SARS-CoV PLpro, growth rescue; control for the full effect not named in the record; also: 0% is about no effect; nearly all actives have a fitted effect of over 55% in size; growth read by luminescence after 48 h
# Lassa entry inh: blocks Lassa virus binding to or entry into cells. Lassa virus pseudotype entry inhibition, cell reporter; control for the full effect not named in the record. Potency, µM (titrated, usually from 37.9 µM), for inactives: at the top dose activity change, negative = inhibition, hits mostly inhibitors. 300,000 compounds, 1.2% hits. AID 540256; active means well fitted inhibition curve with a large enough effect; inconclusive means small, poorly fitted or top-dose-only effect, or effect the other way; inactive means flat fitted curve, though single readings scatter; tested in HEK293 cells; also: % is scaled to controls: 0 for no effect and ±100 for the full control effect; nearly all actives have a fitted effect of over 50% in size; luciferase read-out
# Cruzain inh Det: cruzain (T. cruzi) inhibition with detergent. purified cruzain, Z-FR-AMC fluorescence, 0.01% Triton. Potency, µM, without a hit: max response, negative = inhibition, usual class: inhibitors. 200,000 compounds, 0.43% hits; active = well fitted curve in the direction sought with a large enough effect; inconclusive = small, poorly fitted or top-dose-only effect, or another doubt; inactive = no such curve, though single readings can be large; an effect the other way counts as inactive or inconclusive;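 also: plate controls were neutral wells for no effect and buffer without enzyme for full effect; nearly all actives have a fitted effect of over 40% in size; top concentration of the series not given in the record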
# Target sequence (P25779 123-467 limits assumed): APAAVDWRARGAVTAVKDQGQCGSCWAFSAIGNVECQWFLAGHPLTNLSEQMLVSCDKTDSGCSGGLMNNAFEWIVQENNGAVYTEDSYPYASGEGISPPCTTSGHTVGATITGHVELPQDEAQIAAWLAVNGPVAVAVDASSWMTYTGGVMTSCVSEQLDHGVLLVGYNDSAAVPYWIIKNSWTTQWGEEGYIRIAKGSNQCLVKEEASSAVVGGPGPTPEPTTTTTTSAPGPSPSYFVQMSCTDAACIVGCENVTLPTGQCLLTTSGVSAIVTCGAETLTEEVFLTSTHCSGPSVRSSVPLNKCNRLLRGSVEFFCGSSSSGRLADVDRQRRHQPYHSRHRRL
#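 Read-out: AMC fluorescence (360 nm excitation, 450 nm emission), four reads over 2 min, first-to-third difference used. Conditions: cruzain 1.5 nM, Z-FR-AMC 2 uM, pH 5.5 acetate, 5 mM DTT, 0.01% Triton X-100.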
# NS1 function inh: influenza NS1 inhibition; 270,000 compounds, 0.4% hits; S. cerevisiae slowed by influenza A NS1, growth recovery by OD600; AID 2326; Potency, µM (top dose mostly 46.1 µM), inactives show at the top dose activity, positive = more growth; also: actives are rising curves; nearly all actives have a fitted effect of over 50% in size
#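 Growth recovery, yeast-based: influenza A NS1 expressed in S. cerevisiae causes slow growth, and suppressors are detected by OD600. The parent strain without NS1 is used as positive control.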
# MARV entry inh: inhibitors of Marburg virus binding or cell entry. Marburg virus pseudotyped entry inhibition, cell reporter; control for the full effect not named in the record; about a third of the inactives were read at about 46 µM. Potency, µM (top dose mostly 37.8 µM), for inactives: top-dose activity change, negative = inhibition, hits mostly inhibitors. 300,000 compounds, 1.8% hits. AID 540276; active = well fitted inhibition curve with a large enough effect; inconclusive = small, poorly fitted or top-dose-only effect, or effect the other way; inactive = flat fitted curve, though single readings scatter; tested in HEK293 cells; about a fifth of its hits are not listed in these tables; also: % is scaled to controls: 0 for no effect and ±100 for the full control effect; luciferase read-out
# RE007 growth inh: less growth of the S. pombe RE007 Vpr strain. S. pombe RE007 Vpr strain, BacTiter-Glo ATP luminescence, 24 h; control for the full effect not named in the record. Potency, µM (top dose mostly 92.2 µM), without a hit: top-dose activity change, negative = less growth. 360,000 compounds, 0.21% hits. AID 651644; active = well fitted falling curve with a large enough effect; inconclusive = small, poorly fitted or top-dose-only effect; inactive = no such curve, though single readings can be large or run the other way;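 also: % is scaled to controls: 0 for no effect and ±100 for the full control effect; nearly all actives have a fitted effect of over 50% in size; the assay follows cell death caused by Vpr and the record does not say whether a fall means rescue or toxicity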
#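 Fission yeast strain RE007, carrying one chromosomally integrated HIV-1 vpr copy, was seeded at OD 0.01 in PMG+AL medium with 23 nL pinned compound. After 24 h at 30 °C and 99% humidity, viability was read by BacTiter-Glo luminescence.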
# Cruzain noTriton: blocks cruzain activity in detergent-free assay; P25779; purified cruzain, Z-FR-AMC fluorescence, no detergent; Potency, µM, inactives show max response, negative = inhibition, most hits filed as inhibitors; 200,000 compounds, 2.3% hits; active = well fitted curve in the direction sought with a large enough effect; inconclusive = small, poorly fitted or top-dose-only effect, or another doubt; inactive = no such curve, though single readings can be large; an effect the other way counts as inactive or inconclusive;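 also: plate controls were enzyme without inhibitor for no effect and buffer without enzyme for full effect; nearly all actives have a fitted effect of over 40% in size; top concentration of the series not given in the record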
#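 Purified cruzain at 1.5 nM, pre-incubated 15 min with compound at room temperature in 100 mM sodium acetate pH 5.5, 5 mM DTT, 0.00005% Triton X-100. Reaction started with 2 uM Z-FR-AMC; AMC fluorescence increase over 60 s gives rate.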
# 2A StopGo: lowers the luciferase signal of an FMDV 2A StopGo reporter. Potency, µM (series often up to 57.9 µM), without a hit: top-dose signal change, negative = less light. AID 1159524. human cells with a luciferase reporter of 2A StopGo recoding; control for the full effect not named in the record. 410,000 compounds, 1.2% hits; active = well fitted falling curve with a large enough effect; inconclusive = small, poorly fitted or top-dose-only effect; inactive = no such curve, though single readings can be large or run the other way; tested in HEK293T cells; also: % is scaled to controls: 0 for no effect and ±100 for the full control effect; nearly all actives have a fitted effect of over 45% in size; luciferase light after 4 h
# Active calls of the source: *; ? = inconclusive; / = not tested or not shown; & = joins results of further samples; [ ] = remark or other dose. Unless noted, calls follow the shape of the dose curve; as a rule, active means well fitted rising curve with a large enough effect; inconclusive means small, poorly fitted or top-dose-only effect; inactive means no such curve, though single readings can be large or run the other way. Potency is read from the fitted curve at half-maximal effect.
SMILES	SARS PLpro yeast	Lassa entry inh	Cruzain inh Det	NS1 function inh	MARV entry inh	RE007 growth inh	Cruzain noTriton	2A StopGo
CC(NC(=O)c1ccc([N+](=O)[O-])o1)C1CC2CCC1C2 (stereo not drawn)	-88.6%	?	/	/	-1.4%[46.1 µM]	10.0%	/	-13.8%
CCCN(CCC)CCNC(=O)C1CCCN(S(=O)(=O)c2cccc3nsnc23)C1 (stereo not drawn)	/	9.3%[46.1 µM]	-3.9%	/	-11.7%[46.1 µM]	/	-7.9%	-2.7%
CC1CCCCN1S(=O)(=O)c1cnc(Cl)c(Br)c1 (stereo not drawn)	-6.9%	-2.5%	-0.9%	-6.6%	?	-18.8%	-6.7%	-6.8%
O=C(Cn1c(=O)n(Cc2ccco2)c(=O)c2oc3ccccc3c21)Nc1ccc(F)c(Cl)c1	/	-8.5%[46.1 µM]	-7.4%	/	/	/	-8.1%	-22.7%
CCOC(=O)CCC(=O)N1CCOCCOCCN(C(=O)CCC(=O)OCC)CCOCCOCC1	9.6%	5.1%	2.0%	2.4%	22.8%	-12.9%	5.8%	-5.1%
O=c1c(Br)c(NCc2ccccc2)cnn1-c1ccc(F)cc1	0.5%	?	/	-6.1%	?	6.7%	/	34.9%[activator]
Cc1ccc(-n2c(-c3c(-c4ccccc4)noc3C)n[nH]c2=S)cc1	0.8%	9.9%	-2.0%	1.6%	8.5%	-5.9%	-3.9%	-10.6%
c1ccc(-c2ccc(-c3ccccn3)s2)nc1	-3.8%	?	/	-65.4%	?	-23.1%	/	8.3%
O=C(Nc1ccccc1F)c1ccc(CN2CCN(c3ccccc3)CC2)cc1	-0.4%	/	/	-19.0%	/	-15.1%	/	-22.3%
O=C(COC(=O)c1cc(=O)[nH]c(=O)[nH]1)NCc1ccccc1	5.0%	0.6%	-2.3%	-0.2%	3.0%	4.1%	-10.5%	0.0%
CCOC(=O)c1sc(C)c2c(=O)n(Cc3ccc(Cl)cc3)cnc12	1.6%	2.3%[46.1 µM]	/	/	2.3%[46.1 µM]	-5.2%	/	2.6%
CC(=O)c1cccc(NC(=O)c2cc3sc(Cl)cc3n2C)c1	/	/	-3.5%	/	?	/	-8.9%	20.1%
CCOC(=O)c1c(-c2ccc(OC)cc2)oc2ccc(OCc3ccc(Br)cc3)cc12	/	16.7%[46.1 µM]	-1.9%	/	11.7%[46.1 µM]	/	?	-10.5%
CS(=O)(=O)N1CCN(C(=O)c2cc(-c3ccncc3)nc3ccc(Cl)cc23)CC1	/	5.7%	3.4%	-44.8%	?	-0.2%	?	?
O=C1CCSc2ccc(Cl)cc2N1Cc1cccc(Cl)c1	-31.0%	-13.5%	2.7%	-40.2%	?	1.2%	-1.1%	-21.3%
Cc1ccc(C)c(CN2C(=O)c3ccccc3S(=O)(=O)c3ccc(C(=O)OCC4CCCO4)cc32)c1 (stereo not drawn)	/	-28.2%[46.1 µM]	-0.6%	/	/	/	-24.6%	-1.7%
Cc1cccc(C(=O)NCN2CCN(c3ccccc3C#N)CC2)c1	/	6.2%	-2.1%&-2.1%	6.2%	?	-0.5%	-11.5%&4.3%	-14.6%&-2.5%&-0.9%
O=C(NCCc1ccc(Cl)cc1)C1CCC(=O)N1Cc1ccc(F)cc1 (stereo not drawn)	-1.1%	/	0.7%	-5.1%	/	5.7%	15.9%	-0.5%
Cc1ccc(N2CC(NC(=O)c3cc4ccccc4o3)CC2=O)cc1 (stereo not drawn)	/	5.5%[46.1 µM]	0.4%	/	/	/	14.0%	-12.0%
COc1ccc(Cl)cc1NC(=O)Cn1c(=O)n(Cc2ccco2)c(=O)c2ccc(C(=O)NC3CCCC3)cc21	/	0.4%[46.1 µM]	-2.0%	/	-2.3%[46.1 µM]	/	-26.1%	-13.7%
Cc1ccc2c(=O)cc(C(=O)Nc3nnc(C)s3)oc2c1	/	?	-7.5%	/	?	/	-4.9%	-23.6%
Nc1nonc1-n1nnc(C(=O)N/N=C/c2ccccc2)c1CSc1ccc(Cl)cc1	-6.5%	1.7%	-3.8%	8.0%	?	-21.2%	?	-26.8%
O=C1c2cccnc2C(=O)N1Cc1ccc(S(=O)(=O)N2CCN(c3ccc(Cl)cc3)CC2)cc1	1.9%	/	/	?	/	11.4%	/	-8.0%
COc1ccc(NS(=O)(=O)c2ccc3c(c2)CCN3C(=O)CCC(=O)O)cc1OC	-0.5%	?	/	1.4%	28.5%[46.1 µM]	8.5%	/	15.7%
O=C(CSc1nc2ccccc2n1CC(=O)N1CCCC1)NCc1ccc2c(c1)OCO2	6.3%	12.4%	-0.5%	?	?	-8.8%	-11.9%	/
O=C(Nc1ccncc1)c1ccc2ncsc2c1	15.1%	3.1%	/	/	-9.6%	0.0%	/	4.7%
O=S(NC1CCCCC1)C12CC3CC(CC(C3)C1)C2 (stereo not drawn)	1.5%	?	-2.4%	-51.3%	-9.0%	-8.2%	3.1%	7.3%
CN(CC(=O)Nc1ccc(N2CCOCC2)cc1)CC(=O)Nc1ccc(N2CCOCC2)cc1	1.7%	/	/	-0.4%	/	-3.5%	/	0.0%
CC(=O)Oc1ccc(Cn2cnc3cc4ccccc4cc32)cc1	-1.2%	1.5%	-12.9%	-19.8%	-1.2%	10.4%	0.2%	12.3%
Cc1nnc(N(C)C(=O)c2ccc3c(c2)OCO3)s1	0.3%	-2.8%[46.1 µM]	/	5.1%	25.1%[46.1 µM]	10.2%	/	2.0%
O=C1c2ccccc2C(Nc2cccnc2)N1Cc1ccccc1Cl (stereo not drawn)	2.1%	/	3.7%	-24.3%	/	-7.2%	3.1%	-8.0%
CC1(C)C2CCC(C2)C1(C)NC(=O)CN1CCCC1 (stereo not drawn)	-0.2%	-6.5%	/	6.6%	-3.1%	3.4%	/	-5.0%
Cc1ccc(CN(C)C(=O)c2cc(S(=O)(=O)N3CCOCC3)ccc2F)o1	4.2%	10.9%	/	/	?	2.6%	/	-7.1%
Cc1cc(C(=O)CC#N)c(C)n1-c1c(C)n(C)n(-c2ccccc2)c1=O	-1.0%	16.8%	/	3.6%	-1.3%[46.1 µM]	7.7%	/	-18.1%
COc1cc(COc2ccc3c(C)c(CCC(=O)O)c(=O)oc3c2)cc(OC)c1OC	1.0%	12.8%	/	10.5%	-28.1%	-19.3%	/	42.7%[activator]
CCOC(=O)c1ccc(NC(=S)Nc2ccc3[nH]c(=O)[nH]c3c2)cc1	-0.8%	-3.9%	/	-0.4%	?	-3.4%	/	-19.4%
O=C(NC1CC(=O)N(c2ccccc2)C1)C1CCCCC1 (stereo not drawn)	/	23.6%[46.1 µM]	-1.7%	/	/	/	?	-18.5%
COc1ccc(CCC(N)=O)cc1OC	-0.5%	8.7%	3.0%	7.9%	4.2%[46.1 µM]	-7.3%	-7.2%	-9.0%
c1cc(-c2nn[nH]n2)ccc1CN1CCCCC1	4.2%	-1.7%	-2.9%	-14.0%	6.2%	9.3%	5.0%	-19.6%
Cc1ccc(CCNS(=O)(=O)c2cc(-c3cc(C)no3)ccc2C)cc1	/	-16.1%[46.1 µM]	-5.4%	/	/	/	-11.3%	48.1%[activator]
O=C1NC(=O)N(Cc2ccc(F)cc2)C(=O)/C1=C\C=C\c1ccco1	-3.0%	/	/	-8.9%	/	2.1%	/	28.2µM*
Cc1ccc(S(=O)(=O)/N=C(/Nc2ccc(F)cc2F)c2ccccc2)cc1	-2.6%	/	/	-6.7%	/	12.4%	/	31.0%[activator]
CCOC(=O)C1CCCN(C(=O)c2cc3c(=O)[nH]c4ccc(C)cc4c3s2)C1 (stereo not drawn)	/	-0.4%[46.1 µM]	-0.8%	/	-0.8%[46.1 µM]	/	12.4%	-27.0%
COC(=O)C/C=C/[C@@H](C)[C@@H](/C=N/OC[C@H]1O[C@H](c2ccccc2)C=C[C@@H]1Oc1ccc(OC)cc1)NS(=O)(=O)c1ccc(C)cc1	-6.2%	?	-6.6%	16.2%	?	/	7.7%	/
COc1ccc(C(C)=O)cc1COc1ccccc1[N+](=O)[O-]	2.0%	-23.9%[46.1 µM]	/	/	-1.6%[46.1 µM]	8.6%	/	-16.3%
C=C(C)CN(CC)C(=O)CSc1nc2ncc(Cl)cc2[nH]1	-1.8%	1.4%	-1.5%	-4.3%	-4.0%	0.8%	-3.4%	11.3%
COc1ccc(Cl)cc1NC(=O)C1CCCN(c2ncnc3c2nc2n3CCCCC2)C1 (stereo not drawn)	-1.2%	-2.2%[46.1 µM]	/	4.5%	-0.4%[46.1 µM]	6.2%	/	?
Cc1nnc(NC(=O)C2CCN(c3cnccn3)CC2)s1	-7.6%	10.0%	-2.2%	7.2%	-0.9%	-14.4%	-6.9%	33.1%
Cc1cc(C)c2c3c(c(-c4ccccc4)n2n1)c(=O)n(C)c(=O)n3C	/	3.7%	/	7.2%	-20.4%[46.1 µM]	-8.4%	/	-13.1%
O=C(NCC1CCCCC1)c1cc(S(=O)(=O)N2CCCCC2)ccc1N1CCOCC1	-1.4%	-13.2%[46.1 µM]	/	/	?	-20.1%	/	-22.8%
COc1cccc(-c2ccc(-c3noc(-c4ccccc4F)n3)c(OC)n2)c1	0.7%	10.9%	-14.7%	-35.6%	10.4%	-7.2%	-7.6%	-3.7%
CC(=O)N1c2ccc(S(=O)(=O)N3CCCCCC3)cc2CC1C(=O)NCc1ccccc1 (stereo not drawn)	/	1.4%[46.1 µM]	0.7%	/	/	/	0.8%	6.4%
CC(C)(C)c1cc(CCC(=O)NCC2CCCO2)cc(C(C)(C)C)c1O (stereo not drawn)	-2.1%	29.6%[46.1 µM]	/	5.0%	8.4%[46.1 µM]	-13.4%	/	0.2%
CC(NNC(=S)N1CCN(c2ccccn2)CC1)c1nccc2ccccc12 (stereo not drawn)	/	?	/	/	?	?	/	0.0%
COC(=O)c1cccc(S(=O)(=O)N2CCC(NC(=O)NC34CC5CC(CC(C5)C3)C4)CC2)c1	-8.0%	13.0%	-2.7%	-34.1%	15.8%	-10.5%	17.6%	0.0%
